# Source: PubChem BioAssay (National Center for Advancing Translational Sciences (NCATS))
# D2 PAM: human D2 receptor positive allosteric modulation; 360,000 compounds, 0.23% hits; DiscoveRx D2 beta-arrestin cells, luminescence, 90 min; 100% = 57 uM dopamine signal; P14416; potentiation, % (concentration not given with the values); active = potentiation of 50% or more; inconclusive = 30% to 50%; inactive = 30% or less;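 also: tested on top of an EC20 dose of dopamine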
# Target sequence (P14416 whole entry, looked up): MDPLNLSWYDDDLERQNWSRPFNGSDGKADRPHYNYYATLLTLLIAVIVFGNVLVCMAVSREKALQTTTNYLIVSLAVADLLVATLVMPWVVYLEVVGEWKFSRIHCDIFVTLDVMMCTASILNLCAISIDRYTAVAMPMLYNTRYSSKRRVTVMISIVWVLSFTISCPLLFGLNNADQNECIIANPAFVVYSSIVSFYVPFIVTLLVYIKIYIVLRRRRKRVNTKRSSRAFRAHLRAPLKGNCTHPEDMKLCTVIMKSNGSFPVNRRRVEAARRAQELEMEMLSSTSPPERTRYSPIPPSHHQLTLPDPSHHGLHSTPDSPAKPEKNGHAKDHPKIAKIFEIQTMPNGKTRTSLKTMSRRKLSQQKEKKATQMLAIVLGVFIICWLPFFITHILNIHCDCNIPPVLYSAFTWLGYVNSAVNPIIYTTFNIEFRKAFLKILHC
#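 PathHunter beta-arrestin assay in DiscoveRx D2 cells. Compounds were added with an EC20 of dopamine (50 nM final) for 90 min at 37 deg C. Luminescence was read 1 h after detection reagent, with 57 uM dopamine as the EC100 control.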
# Menin-MLL FL inh: inhibitors of human menin-MLL interaction, wild-type MLL peptide; Fluorescence polarization, fluorescein-MLL peptide displacement from menin; FP activity change, % at 61.4 µM; 290,000 tested, under 10 active; AID 1766; inconclusive = falling polarisation curve, or a change in total fluorescence; inactive = total fluorescence flat and polarisation flat or rising; no compound was filed as active; the % refers to the polarisation; negative = inhibition;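 also: % of control where 0% means no effect; inhibitors lower the polarisation; unlabelled MLL peptide was the positive control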
# ClpP mod: qHTS Assay for Activators of ClpP. Potency, µM (series often up to 57.5 µM), for inactives: at the top dose activity change, negative = active. ATP-dependent Clp protease proteolytic subunit (Bacillus subtilis (strain 168)), P80244. 340,000 compounds, 1.9% hits. purified B. subtilis ClpP, FRET peptide cleavage, 20 min. AID 651965, 2013; active = well fitted falling curve with a large enough effect; inconclusive = small, poorly fitted or top-dose-only effect; inactive = no such curve, though single readings can be large or run the other way; also: potency is read from the fitted curve at half-maximal effect; the source files actives as falling curves though it sought activators and does not explain the sign; nearly all actives have a fitted effect of over 65% in size; many hits overshoot -100%
# Target sequence (P80244 whole entry, looked up): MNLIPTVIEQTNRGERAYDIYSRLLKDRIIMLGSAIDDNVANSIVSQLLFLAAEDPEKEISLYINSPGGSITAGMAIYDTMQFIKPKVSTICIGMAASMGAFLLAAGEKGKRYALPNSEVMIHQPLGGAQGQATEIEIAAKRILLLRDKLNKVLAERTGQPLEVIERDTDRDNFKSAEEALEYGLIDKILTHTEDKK
#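 Buffer: 100 mM Tris/HCl pH8, 100 mM KCl, 0.05% low protease BSA, 2.5% glycerol, 0.01% Tween-20. ClpP 10 microg/mL final; 20 min RT; delta FRET normalized to ADEP and DMSO controls.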
# TRPV1 potentiator: potentiators of human vanilloid receptor 1 (TRPV1) | 320,000 compounds, 0.02% hits | potentiation, % at 8.33 µM | TRPV1-expressing cells, Fluo-8 calcium influx, capsaicin EC20 potentiation; host cell line not named in the record; control for the full effect not named in the record | AID 540277; active means potentiation above 80%; inconclusive means 30% to 80%; inactive means below 30%; also: 0% is about no effect
#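 Cells expressing TRPV1 were dye-loaded with Fluo-8 and read kinetically: 10 s baseline, 3 min after compound (agonist portion), then 2 min after EC20 capsaicin (allosteric enhancer portion). Calcium-bound dye fluorescence at 480/520 nm.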
# gsp ag: agonists of gsp mutant (McCune-Albright syndrome). gsp mutant cells, cAMP HTRF, 30 min; control for the full effect not named in the record. Potency, µM (series often up to 76.9 µM), without a hit: at the highest dose activation (cAMP increase), actives largely listed as activators. 340,000 compounds, 0.13% hits; active = well fitted activation curve with a large enough effect; inconclusive = small, poorly fitted or top-dose-only effect, or another doubt; inactive = no such curve, though single readings can be large or run the other way; cell line not stated here;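 also: phosphodiesterase inhibitor Ro 20-1724 added with compounds to block cAMP breakdown; potency is read from the fitted curve at half-maximal effect; nearly all actives have a fitted effect of over 60% in size; about a fifth of the inactives were tested at one dose only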
#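 Cells in DMEM/10% FBS with G418 were pretreated with compounds in DMSO plus […] (300 uM stock) for 30 min at 37C. cAMP was measured by HTRF (cAMP-d2 plus anti-cAMP antibody-K) after 30 min at room temperature.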
# gsp antagonist: antagonists of gsp mutant (McCune-Albright syndrome) | gsp-mutant cells, cAMP HTRF, 30 min; control for the full effect not named in the record | Potency, µM (doses to about 76.9 µM), for inactives: at the highest dose activity change, negative = inhibition, actives largely listed as inhibitors | 340,000 compounds, 0.4% hits | AID 624288; active = falling curve of any shape with a large fitted effect; inconclusive = falling curve, mostly with a smaller effect; inactive = flat or rising curve; cell line not stated here;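 also: intracellular cAMP measured with PDE inhibitor Ro 20-1724 present during compound exposure; potency is read from the fitted curve at half-maximal effect; % is scaled to controls: 0 for no effect and ±100 for the full control effect; nearly all actives have a fitted effect of over 65% in size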
#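 Measurement of cellular cAMP by homogeneous time-resolved fluorescence following a 30 min compound exposure at 37C. The PDE inhibitor […] was present throughout; the assay buffer was DPBS with 0.05% BSA and 0.005% Tween 20.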
# Sfp PPTase inh: inhibitors of Bacillus subtilis Sfp phosphopantetheinyl transferase; Potency, µM, inactives show max response, negative = inhibition, actives largely listed as inhibitors; AID 1490; 310,000 compounds, 3.5% hits; Q9F4F7; Biochemical Sfp PPTase activity, qHTS; active = well fitted inhibition curve with a large enough effect; inconclusive = small, poorly fitted or top-dose-only effect, or another doubt; inactive = no such curve, though single readings can be large or run the other way;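 also: the enzyme is Sfp with the accession as filed and its product quenches rhodamine fluorescence; potency is read from the fitted curve at half-maximal effect; 0% = enzyme reaction without inhibitor and -100% = no enzyme wells; top concentration of the series not given in the record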
#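 Reaction rates are the 30-min fluorescence difference (ex 525, em 598 nm) in wells containing 15 nM Sfp, 5 uM rhodamine-CoA and 12.5 uM BHQ-2-YbbR at pH 7.6 with 10 mM MgCl2.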
# Numbers without * were called inactive; ? = inconclusive; · = not tested or not shown; [ ] = dose if it differs, or a comment.
SMILES,D2 PAM,Menin-MLL FL inh,ClpP mod,TRPV1 potentiator,gsp ag,gsp antagonist,Sfp PPTase inh
CCC(Sc1nc(-c2ccccc2)cc(=O)[nH]1)C(=O)O (stereo not given),1.9,2.4,0.0%,29.0,-23.2%,10.6%,8.9%
CCC(=O)Nc1nc2ccc(NC(=O)COc3ccccc3)cc2s1,-12.9,0.2,1.0%,-11.6,?,4.1%,0.9%
O=C(/C=C/c1cccc(Cl)c1)NCCc1ccccc1,-11.6,1.1,-0.6%,-13.1,3.7%,-7.6%,20µM*
Cc1cc2[nH]c3ccccc3c2cn1,14.8,-2.3,0.0%,-10.3,-3.9%[15.4 µM],-10.1%,8.1%
CCCOCC(O)CCc1n[nH]c(=S)n1-c1ccccc1 (stereo not given),2.2,6.1,·,0.7,-6.7%[15.4 µM],4.3%,?
N#Cc1c(Nc2ccccc2)c(C=O)c[nH]c1=O,0.2,-0.2,·,-8.2,27.6%,6.9%,10.9%
Cc1ccc(C(=O)CCC(=O)N(C)CC(=O)Nc2ccccc2Br)cc1,13.9,·,-2.7%,3.3,-32.4%[inhibitor],6.5%,17.9%
COc1ccc(NC(=O)CSc2n[nH]c(-c3ccccn3)n2)cc1,5.3,-3.4,·,2.7,-9.1%[15.4 µM],-0.8%,-13.4%
Nc1c(N(Cc2ccccc2)C(=O)CCc2ccccc2)c(=O)[nH]c(=O)n1Cc1ccccc1,-9.3,·,-0.4%,-12.4,-25.5%,2.1%,·
CC1(C)CC(=O)C(C=N)=C(O)C1,2.0,2.5,-4.0%,0.3,10.5%,2.9%,15.6%
CCOc1ncccc1C(=O)OCC(=O)N1CC(=O)Nc2ccccc21,1.4,-7.9,-0.1%,20.7,-17.5%,-2.8%,-6.5%
COc1ccccc1NC(=S)N1CCN(c2nc(-c3ccccc3)cs2)CC1,1.9,1.5,·,-2.7,-10.7%[15.4 µM],-5.3%,-2.2%
N#C/C(C(=O)c1ccccc1)=C1/SC=C(N)N1c1ccccc1,·,?,·,1.1,·,·,35.5µM*
COc1ccccc1C(=O)N/N=C(\C)CC(=O)Nc1ccc(Nc2ccccc2)cc1,-9.9,·,·,9.0,6.8%[15.4 µM],-31.5%,-2.9%
CCc1cc2c(N3CCN(c4nnc(CC)s4)CC3)ncnc2s1,-0.6,·,-1.4%,-24.7,9.3%,?,-7.0%
Cc1cccc(-n2nc(C(=O)c3ccco3)cc(-c3nc4ccccc4[nH]3)c2=N)c1,-11.2,4.1,-1.5%,-5.0,-47.8%[inhibitor],-5.0%,26.9%
O=C(/C=C/c1ccc(F)cc1)NC(=S)N1CCCCC1c1cccnc1 (stereo not given),-12.8,-2.5,·,-6.3,-2.0%[15.4 µM],2.5%,50.1µM*
O=C(NC(Cc1ccccc1)C(=O)O)/C(=C/c1ccccc1)NC(=O)c1ccc(Br)o1 (stereo not given),4.0,-3.1,·,-4.7,-32.9%[inhibitor],3.1%,25.0%
COc1ccc(S(=O)(=O)Nc2nc3ccccc3nc2NCc2ccc3c(c2)OCO3)cc1,-10.5,-1.9,?,4.7,3.8%,0.3%,-9.6%
Cc1c(NC(=O)C(=O)N/N=C/c2cccs2)c(=O)n(-c2ccccc2)n1C,-4.3,1.6,0.9%,17.4,-1.5%[15.4 µM],13.0%,11.7%
Cc1ccc(N2CCN(c3ccc(NC(=O)CCC(=O)O)cc3)CC2)cc1,-10.5,2.7,1.6%,7.7,-18.6%,11.9%,24.6%
CCOc1cc(/C=N\NC(N)=O)cc(Br)c1OC(C)C,1.4,4.7,-1.4%,-4.1,-10.3%,18.7%,2.2%
CC1=C(Cl)C2=NS(=O)(=O)CCN2C=C1Cl,5.3,0.1,·,-0.9,-16.7%[15.4 µM],·,11.8%
Oc1cccc(Nc2ccccc2)c1,-3.7,·,-24.3%,15.1,·,-4.8%,·
O=C(Sc1nnc(-c2ccccc2)o1)N1c2ccccc2Sc2ccccc21,20.6,-1.6,-13.7%,-0.3,?,-0.6%,-10.3%
C/C(=N\NC(=O)c1cccc2ccccc12)c1ccccn1,-16.8,-0.8,1.5%,-0.4,-10.6%,6.1%,7.2%
CCc1cc2c(-c3ccccc3)cc(=O)oc2cc1OCC(=O)NCC1CCC(C(=O)O)CC1 (stereo not given),-12.5,2.4,-21.7%,-14.2,·,-15.6%,7.4%
COc1ccc(C(=O)c2coc(-c3ccccc3C(=O)O)c2C(=O)O)cc1,1.5,0.3,-2.3%,14.7,-45.5%[inhibitor],7.5%,8.0%
Cn1c(CC(=O)Nc2ccc(Cl)c(Cl)c2)n[nH]c1=S,-19.9,-0.8,-2.7%,3.4,?,-0.5%,-24.4%
COc1ccccc1N1CCN(c2nc3ccccn3c(=O)c2C=O)CC1,-2.6,-5.9,-0.4%,-2.2,27.4%[15.4 µM],5.5%,2.7%
COC(=O)c1cc(S(=O)(=O)NCc2ccc(F)cc2)cn1C,-3.2,0.2,-0.3%,?,?,13.7%,1.9%
CCOC(=O)c1nnc(-c2ccc(C)cc2)nc1N1CCSCC1,-15.7,1.3,·,-16.1,8.3%[15.4 µM],-15.3%,-8.1%
CC(C)(C)S(=O)(=O)c1cnc(N2CCCC2)nc1N,-3.2,-4.3,0.8%,3.6,-9.4%[15.4 µM],-10.0%,11.7%
Cc1ccccc1-n1nnnc1Sc1nnnn1-c1ccccc1,-9.5,3.0,-8.1%,-0.6,-4.9%,1.4%,21.6%
COc1ccc(-c2nn(-c3ccccc3)cc2/C=C/C(=O)OCC(=O)Nc2cccc(C#N)c2)cc1,-9.7,-1.8,24.6%,-14.5,20.8%,-8.4%,?
COc1ccc(C/C(C)=N/NC(=O)C2COc3ccccc3O2)cc1 (stereo not given),-4.2,0.6,-0.9%,-17.6,?,3.0%,-9.5%
CC1CCN(C(=O)c2ccc(N3CCOCC3)c([N+](=O)[O-])c2)CC1,-6.1,·,0.4%,·,21.4%,1.9%,·
O=C(NCC1CC1)Nc1cccc(C(F)(F)F)c1,-18.9,-1.3,·,-19.6,2.0%[15.4 µM],3.5%,-7.2%
COc1ccccc1N1CCN(S(=O)(=O)CCNC(=O)C(C)Oc2ccccc2)CC1 (stereo not given),-15.0,·,-0.4%,·,-126.6%[inhibitor],·,·
Cn1c(=O)c2c(nc(NCCNC(=O)c3ccco3)n2Cc2ccccc2F)n(C)c1=O,-7.8,4.2,·,?,2.2%[15.4 µM],·,16.4%
CCOc1ccccc1-n1nnnc1SCc1nc2ccccc2s1,-16.5,7.0,-2.7%,-10.5,-8.9%,?,-13.1%
CCN(CC)c1ccc(NC(=O)Cn2cc3c(n2)CCC(C)C3)c(C)c1 (stereo not given),-3.1,2.5,1.8%,17.4,-48.2%[inhibitor],-11.4%,-25.7%
O=C(O)Cc1sc(-c2cccnc2)nc1-c1ccc(Br)cc1,-3.3,2.1,·,7.9,27.2%,?,-2.3%
COC(=O)c1cccc(CSc2nc3ccccc3[nH]2)c1,-5.4,2.8,0.8%,-19.8,23.4%,-6.4%,2.2%
CC(C)(C)c1ccccc1OCC(=O)NCCCn1ccnc1,-10.9,0.2,·,-8.6,-5.7%[15.4 µM],9.7%,16.9%
O=S1(=O)CC2SC(=S)N(c3ccccc3)C2C1 (stereo not given),2.8,0.9,1.6%,-9.0,17.4%,3.0%,1.5%
O=C(CSc1nnc2ccc3ccccc3n12)N1CCOCC1,-18.9,3.0,-18.9%,5.7,?,20.1%,-3.2%
O=C(NCCc1c[nH]c2ccccc12)C1CCN(c2nnc(N3CCCC3=O)s2)CC1,-1.6,1.6,-4.8%,6.1,9.0%,-4.6%,10.3%
COCCCNc1ccc([N+](=O)[O-])cc1C(=O)Nc1cccc(C)n1,-9.0,-0.9,-1.0%,-5.0,-2.3%[15.4 µM],-6.0%,8.4%
O=C(O)c1ccc(NC(=O)c2ccco2)c(NC(=O)c2ccco2)c1,-7.6,-0.2,·,19.6,-0.1%[15.4 µM],?,10.0%
O=c1c2ccccc2nc(SCc2ccccc2)n1CC1CCCO1 (stereo not given),-2.5,-1.6,0.6%,-1.6,2.3%,?,-8.8%
O=C(c1cc(Cl)ccc1O)N1CCN(S(=O)(=O)c2cccs2)CC1,-25.0,·,-3.2%,-8.0,-1.1%[15.4 µM],6.7%,·
Cc1ccc(NC(=O)CCn2nnc3ccccc32)cc1,-15.3,0.0,·,4.9,-14.2%,1.2%,9.0%
CCN(C(=O)CSc1nnc(-c2ccncc2)o1)c1ccccc1,-9.5,-1.7,-4.4%,-3.8,23.7%,1.4%,4.7%
COC(=O)c1ccc(-c2ccc(CNCC(O)c3ccccc3)o2)cc1 (stereo not given),-17.8,3.2,15.8µM*,8.0,-41.3%[inhibitor],-3.0%,2.6%
Cc1ccc(S(=O)(=O)N2CCOCC2)cc1NC(=O)CNCc1ccc(Cl)cc1Cl,4.2,·,0.0%,·,-1.8%,?,·
COc1ccc(N2CCC(CNC(=S)Nc3cccc(OC)c3)C2)cc1 (stereo not given),·,13.4,·,-9.6,·,·,-8.5%
CCN(CC(=O)Nc1ccccc1OC)C(=O)CC1CCCC1,-2.7,·,0.1%,·,?,7.3%,·
COc1nccnc1NS(=O)(=O)c1ccc(NC(=O)c2ccc(F)cc2)cc1,-2.7,1.0,·,0.7,16.5%,-12.4%,6.3%
Cn1cccc1C(=O)NC(=O)COC(=O)c1ccc(O)cc1,5.2,1.7,0.6%,-8.7,-24.3%,-11.2%,5.6%
# Continuation.
SMILES,D2 PAM,Menin-MLL FL inh,ClpP mod,TRPV1 potentiator,gsp ag,gsp antagonist,Sfp PPTase inh
CCn1c(NC(=O)c2nn(C)cc2Br)nc2ccccc21,-1.7,1.2,-1.2%,9.5,-19.6%,-5.1%,17.5%
CC(=O)N1CCN(C(=O)c2cc(-c3cccc4ccccc34)nc3ccccc23)CC1,0.2,·,-15.0%,-24.3,4.0%[15.4 µM],-2.7%,11.6%
CCN1C(=O)[C@H]2[C@@H](c3ccc(C(F)(F)F)cc3)N[C@]3(CCCN(Cc4ccc(OC)cc4)C3=O)[C@H]2C1=O,-3.1,·,-1.3%,·,?,·,·
O=C(Cc1ccccc1)Nc1cc([N+](=O)[O-])ccc1N1CCOCC1,-3.1,0.4,1.0%,0.3,-3.6%[15.4 µM],1.2%,18.0%

# Hits appear at their usual frequency; overall some 5.1% were active at least once.
